# From PubChem
# GLA inh pH 4.5: blocks human alpha-galactosidase A at pH 4.5; P06280; 230,000 tested, under 10 active; purified enzyme, 4-MU-alpha-Gal fluorescence, pH 4.5; activity change, negative = inhibition, % at 105 µM; inconclusive = small, poorly fitted or top-dose-only inhibition, or a rising curve; inactive = flat fitted curve, though single readings scatter; no compound was filed as active;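 note: 0% = full activity with enzyme and -100% = basal without enzyme; dose as in the result columns while the protocol names 77 µM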
# Target sequence (P06280 whole entry, looked up): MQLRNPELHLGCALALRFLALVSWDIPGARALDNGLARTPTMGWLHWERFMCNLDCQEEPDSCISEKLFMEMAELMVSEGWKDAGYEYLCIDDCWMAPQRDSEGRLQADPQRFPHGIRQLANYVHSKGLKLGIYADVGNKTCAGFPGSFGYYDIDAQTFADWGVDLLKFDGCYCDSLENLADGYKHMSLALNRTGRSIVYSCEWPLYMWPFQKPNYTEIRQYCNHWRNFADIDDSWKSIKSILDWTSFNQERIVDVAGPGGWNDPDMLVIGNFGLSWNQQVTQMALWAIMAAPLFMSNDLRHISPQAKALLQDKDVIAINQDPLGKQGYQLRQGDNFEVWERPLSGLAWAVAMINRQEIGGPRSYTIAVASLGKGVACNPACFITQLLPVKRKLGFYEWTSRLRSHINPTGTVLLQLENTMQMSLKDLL
# * = called active by the depositor; ? = inconclusive; & = joins results of further samples.
SMILES,GLA inh pH 4.5
C=CCC(O)c1ccccc1 (stereo not drawn),4.5
COC(=O)[C@@]1(Cc2ccc(OC)cc2)[C@H]2c3cc(C(=O)N4CCCC4)n(CCc4ccc(O)c(O)c4)c3C[C@H]2CN1C(=O)c1ccccc1,-3.1
CN1[C@H](CC(=O)c2ccccc2)CCC[C@H]1C[C@H](O)c1ccccc1,-3.7
COc1cc(O)c2c(=O)c(O)c(-c3ccc(O)c(O)c3)oc2c1,0.8
COC(=O)N1C(C)=Cc2ccccc2C1CC(C)=O (stereo not drawn),-2.1&8.3&12.3
CCC[C@@H]1C[C@@]1(CCC)C(NC(=O)c1ccccc1)c1cccc(Cl)c1 (stereo partly drawn),3.2
N#CCCS(=O)(=O)c1ccccc1,-13.8
COc1cccc([C@@H]2Oc3ccc(Br)cc3C(=O)[C@H]2OC(=O)Nc2ccc(C)c(Br)c2)c1,-6.1
NCCCC(O)(P(=O)(O)O)P(=O)(O)O,-1.6&12.3
CCOC(=O)CNC(=O)O[C@@H]1C(=O)c2cc(OC)ccc2O[C@H]1c1ccc(OC)c(Br)c1,-6.0
CC1(OC(=O)c2cnc3ccccc3n2)C(=O)C=C2C=C3CCCN3C=C2C1=O (stereo not drawn),0.6
CC(C)(C)OC(=O)NCCCCC1=CC2=CC(=O)C(C)(OC(=O)C3CCCC3)C(=O)C2=CO1 (stereo not drawn),-5.5
Cn1cc(C(F)(F)F)nc1-c1ccc(OC[C@@H](O)CNCCOc2ccc(O)c(C(N)=O)c2)cc1,8.4
COc1ccc(/C=C/C(=O)c2cccs2)c(OC)c1,-8.8
C[C@@]12C=CC(=O)C=C1CC[C@H]1[C@H]3CC[C@](O)(C(=O)CO)[C@]3(C)CC(=O)[C@@H]12,5.8
CCCCC[C@H](O)/C=C/[C@@H]1[C@@H](C/C=C\CCCC(=O)O)[C@@H](O)C[C@@H]1O,-3.6
CCN1CCC[C@@H](OC(=O)C(c2ccccc2)c2ccccc2)C1,-4.5
C[C@@]12C=CC(=O)C=C1CC[C@@H]1[C@@H]2[C@H](O)C[C@]2(C)[C@@H]1CC[C@]2(O)C(=O)CO,4.3
COCOc1c2c(c(OCOC)c3c(OCOC)cccc13)/C(=N/NS(C)(=O)=O)C1=C2CCCC1,-11.8
CC1(C)OCC([C@H](O)C2=CCCCC2=O)CO1,-2.3
CCCCCCCCCCCCCCCCOC[C@H](COP(=O)([O-])OCC[N+](C)(C)C)OC(=O)NC,6.4
OB(O)c1cc2ccccc2s1,3.1
N[C@@H](Cc1cc(CP(=O)(O)O)cc(-c2ccccc2Cl)c1)C(=O)O,3.7
COc1cc(OC)c2c(OC)c(-c3ccc4c(c3)OCO4)c(=O)oc2c1,?
CCC(C)C(=O)OC1C2CC3=C4CC(=O)OC(c5ccoc5)[C@]4(C)CCC3[C@@](C)(C2=O)C(CC(=O)OC)C1(C)C (stereo partly drawn),1.1

# The results go on:
SMILES,GLA inh pH 4.5
Cc1cnc(CNc2ccnc(-c3ccccc3Cl)n2)cn1,-0.3
O=C(O)CC1CCCc2ccccc2C1O (stereo not drawn),1.6
O=C(CCCc1ccc(-c2ccccc2F)cc1)Nc1ccc(O)cc1,-14.7
CC(=O)O[C@H]1C(=O)[C@@]2(C)C([C@H](OC(=O)c3ccccc3)[C@]3(O)C[C@H](OC(=O)[C@H](O)[C@@H](NC(=O)c4ccccc4)c4ccccc4)C(C)=C1C3(C)C)[C@]1(OC(C)=O)CO[C@@H]1C[C@@H]2O (stereo partly drawn),-27.4
Cc1ccccc1-c1cc(-n2ccnc2)ncn1,-1.4
COC(=O)C1=C(C(=O)OC)[C@@H]2N(Cc3ccccc3)c3ccccc3[C@@]23C[C@@H](C(=O)OC)N(C(=O)NCc2ccccc2)C3=C1,-1.6
COC(=O)C1=C(C(=O)OC)[C@@H]2N(C)c3ccccc3[C@@]23C[C@@H](C(=O)OC)N(S(=O)(=O)c2c(C)noc2C)C3=N1,1.2
O=C1C=CC(=O)c2c1ccc1c2ccc2ccccc21,-2.1
CC(N)=NCCCC[C@@H](N)C(=O)O,2.5
CC(=O)OCC(=O)[C@@]1(O)CC[C@@H]2[C@H]3CCC4=CC(=O)CC[C@]4(C)[C@]3(F)[C@@H](O)C[C@@]21C,5.1
C[C@]12CCC3c4ccc(O)cc4CCC3C1CCC2=O (stereo partly drawn),3.4
CCC(C)C(=O)O[C@H]1C[C@@H](C)C=C2C=C[C@H](C)[C@H](CC[C@@H]3C[C@@H](O)CC(=O)O3)C21 (stereo partly drawn),-22.7
Nc1ncnc2c1ncn2[C@@H]1O[C@H](CO)[C@H](O)[C@H]1O,-7.6
CS(=O)(=O)Nc1cccc(-c2ccc3ncnc(NCc4cccnc4)c3c2)c1,0.4
c1ccc2c(N3CCNCC3)nc(-c3ccc4c(c3)OCO4)nc2c1,1.1
COCCN(CCOC)c1nc(C)nc2c1nc(-c1ccccc1)n2CCCN1CCCCC1C (stereo not drawn),-11.5
C=C1CC/C=C(\C)CC[C@@H]2[C@@H]1CC2(C)C,5.9
Cc1ccccc1-c1nc(NCCN2CCOCC2)c2ccccc2n1,-6.3
CC[C@H](C)[C@@H]1O[C@]2(CC[C@@H]1C)C[C@H]1C[C@H](CC=C(C)[C@@H](O[C@@H]3C[C@H](OC)[C@H](O[C@@H]4C[C@H](OC)[C@H](O)[C@H](C)O4)[C@H](C)O3)[C@@H](C)C=CC=C3CO[C@@H]4[C@@H](O)C(C)=C[C@@H](C(=O)O1)[C@]34O)O2,-11.9
C=C(NC(=O)C(=C)NC(=O)c1csc(C2=NC3c4csc(n4)C4NC(=O)c5csc(n5)C(C(C)(O)C(C)O)NC(=O)C5CSC(=N5)C(=CC)NC(=O)C(C(C)O)NC(=O)c5csc(n5)C3(CC2)NC(=O)C(C)NC(=O)C(=C)NC(=O)C(C)NC(=O)C(C(C)CC)NC2C=Cc3c(C(C)O)cc(nc3C2O)C(=O)OC4C)n1)C(N)=O (stereo not drawn),-10.0
COc1ccc2c(c1)C(=O)[C@@H](OC(=O)N[C@H]1CCCc3ccccc31)[C@H](c1ccc(OC)c(Br)c1)O2,3.8
CC(C)(C(O)c1ccc([N+](=O)[O-])cc1)[N+](=O)[O-] (stereo not drawn),1.9
CC(=O)OCCC(C)CCC=C(C)C (stereo not drawn),1.7
COc1cccc(NC(=O)/C=C\c2ccc(Cl)cc2)c1,-14.3
CN(C)CCCOC1C(C(O)CO)OC2OC(C)(C)O[C@@H]21 (stereo partly drawn),1.4

# Some values from the entries so far:
# C[C@]12CCC3c4ccc(O)cc4CCC3C1CCC2=O (stereo partly drawn) | GLA inh pH 4.5 = 3.4
# CC(N)=NCCCC[C@@H](N)C(=O)O | GLA inh pH 4.5 = 2.5

# (further entries)
SMILES,GLA inh pH 4.5
CCCc1nc(C(C)(C)O)c(C(=O)OCc2oc(=O)oc2C)n1Cc1ccc(-c2ccccc2-c2nn[nH]n2)cc1,3.9
CC1=C(C(N)=O)N2C(=O)[C@@H](NC(=O)Cc3ccccc3)C2SC1 (stereo partly drawn),-7.5
CC(C)(C)OC(=O)NCCCCC1=CC2=CC(=O)C(C)(OC(=O)CCc3ccccc3)C(=O)C2=CO1 (stereo not drawn),-5.9
CC1(C)[C@@H](OC(=O)CCC(=O)O)CC[C@@]2(C)[C@H]1CC[C@@]1(C)[C@H]2C(=O)C=C2[C@H]3C[C@](C)(C(=O)O)CC[C@]3(C)CC[C@@]21C,-0.3
Nc1nc(=O)n(C2OC(CO)C(O)C2O)cc1Cl (stereo not drawn),-2.8
C[C@H](NCCc1ccc(O)cc1)[C@@H](O)c1ccc(O)cc1,-5.9
COc1ccc2c(c1)C(=O)[C@@H](OC(=O)NCCOc1ccccc1)[C@H](c1ccc(OC)c(Br)c1)O2,-7.8
NC1(C(=O)O)C[C@@H](C(=O)O)[C@H](C(=O)O)C1,-1.3&2.6
O=C(Oc1cccc2cccnc12)c1ccccc1,-1.2
C=C1C(=O)C23C(O)C1CCC2[C@]12COC3(O)C(O)C1C(C)(C)CC[C@H]2O (stereo partly drawn),21.5
CC(C)SC(=N)N,5.3
CC(=O)Oc1cc2c(c(C)c1OC(C)=O)CC=C1[C@]3(C)CC[C@]4(C)CC[C@@](C)(C(=O)O)CC4[C@]3(C)CC[C@]12C (stereo partly drawn),-9.8
Cc1ccc(C2CC(=O)Oc3cc(C)c(Cl)c(C)c32)cc1 (stereo not drawn),-10.1
COCC(=O)Nc1c(I)c(C(=O)NC[C@@H](O)CO)c(I)c(C(=O)N(C)C[C@@H](O)CO)c1I,6.9
Nc1nc2c([nH]c(=O)n2C2OC(CO)C(O)C2O)c(=O)[nH]1 (stereo not drawn),0.2
CN1CC(=O)N/C1=N/C(=O)Nc1cccc(Cl)c1,1.7
CCCCC/C=C\C/C=C\CCCCCCCCCC(=O)O,-15.8
Fc1ccc([C@H]2CCNCC2COc2ccc3c(c2)OCO3)cc1 (stereo partly drawn),2.2
c1cc2c(cc1C1CCCCC1)c1c3n2CCN[C@H]3CCC1,?
COc1ccc2c(c1)O[C@H](c1ccc3c(c1)OCO3)[C@@H](OC(=O)NCCOc1ccccc1)C2=O,-11.0
CCN1CCC[C@@H]1CNC(=O)c1cc(S(N)(=O)=O)ccc1OC,-3.7
C=C1CC[C@H](O)C/C1=C/C=C1\CCC[C@]2(C)[C@@H]([C@H](C)CC[C@@H](O)C(C)(C)O)CC[C@@H]12,-5.9
Cc1cccc(C2=N[C@@H](CC(C)C)CO2)c1,-1.2
C=CCOC(=O)NC(c1ccc(F)c(F)c1)C(C(=O)CCl)C(=O)OC (stereo not drawn),2.2
C/C=C/c1ccc(OC)cc1,-3.5

# Some of these compounds in order of formula weight, highest first.
SMILES,GLA inh pH 4.5
COc1ccc2c(c1)C(=O)[C@@H](OC(=O)NCCOc1ccccc1)[C@H](c1ccc(OC)c(Br)c1)O2,-7.8
Cc1ccc(C2CC(=O)Oc3cc(C)c(Cl)c(C)c32)cc1 (stereo not drawn),-10.1
Nc1nc2c([nH]c(=O)n2C2OC(CO)C(O)C2O)c(=O)[nH]1 (stereo not drawn),0.2
CN1CC(=O)N/C1=N/C(=O)Nc1cccc(Cl)c1,1.7
O=C(Oc1cccc2cccnc12)c1ccccc1,-1.2
NC1(C(=O)O)C[C@@H](C(=O)O)[C@H](C(=O)O)C1,-1.3&2.6

# (next part)
SMILES,GLA inh pH 4.5
CS(=O)(=O)c1ccc([C@H](O)[C@H](CO)NC(=O)C(Cl)Cl)cc1,3.7
COc1cccc(-c2cncnc2NCc2ccc(OC)cc2OC)c1,-2.7
COc1c(CC(=O)c2cc3c(cc2O)OC(C)(C)C(O)C3)ccc2c1C=CC(C)(C)O2 (stereo not drawn),-8.5
Cc1cc2c(cc1Cl)C(c1ccc3c(c1)OCO3)CC(=O)O2 (stereo not drawn),-16.5
CC(C)=CC1C(C(=O)O)C1(C)C (stereo not drawn),-11.8
CC(=O)SC1CC2=CC(=O)CC[C@@]2(C)C2CC[C@@]3(C)[C@@H](CC[C@@]34CCC(=O)O4)C12 (stereo partly drawn),-2.0
COCCNc1ccnc(-c2cccc(NS(C)(=O)=O)c2)n1,-3.6
Cc1cccc(CNc2ccnc(-c3ccccc3CN(C)C)n2)c1,-7.3
CC#CCC1(C(=O)OC)C(=O)NC[C@H]1c1ccccc1 (stereo partly drawn),-0.3&1.5&-9.6
Cc1cc(O)cc(O)c1C(=O)O,-0.8
O=C(O)[C@H]1CCCN(CCC=C(c2ccccc2)c2ccccc2)C1,3.3
c1ccc(Oc2nc(NC3CCCCC3)c3[nH]cnc3n2)cc1,-3.0
C=CCC(C)(O)c1cccs1 (stereo not drawn),-2.9
COc1cccc(CS(=O)(=O)c2nnnn2-c2ccccc2)c1,-11.6
COC(=O)C(C(=O)OC)C1c2ccccc2C=C(C)N1C(=O)OC (stereo not drawn),1.2
Cc1nc(NCc2ccccc2)c2nc(-c3ccccc3)n(C3CCN(Cc4ccccc4)C3)c2n1 (stereo not drawn),-2.7
C=CC(N)CCC(=O)O (stereo not drawn),-4.0&-0.1
N[C@H](C(=O)O)c1nn[nH]n1,-7.1
CCCCCCN(C(=O)CCCCCN1C(=O)NC(c2ccc3ccccc3c2)C(C(=O)OCc2ccccc2)=C1C)C(C(=O)NCCCC)c1ccc(OCC(=O)OC)c(C(=O)OC)c1 (stereo not drawn),1.7
COc1ccc(-c2cc(=O)c3c(O)c(OC)c(O[C@@H]4OC(COC5OC(C)C(O)C(O)[C@@H]5O)C(O)C(O)C4O)cc3o2)cc1 (stereo partly drawn),-2.4
O=c1ccn([C@@H]2O[C@H](COP(=O)(O)OP(=O)(O)O)[C@@H](O)[C@H]2O)c(=O)[nH]1,3.9
c1ccc2c(-n3ccnc3)nc(-c3ccoc3)nc2c1,3.2
CCCCC1=CC2=C(c3ccco3)C(=O)C(C)(OC(=O)c3ccc(OC)cc3)C(=O)C2=CO1 (stereo not drawn),-5.1
COC(=O)[C@@H]1[C@@H](C)N(CCc2cc(OC)c(OC)c(OC)c2)C(=O)N[C@H]1c1ccccc1,4.3
COCC1=C2c3ccccc3[C@H](C[N+](=O)[O-])C(C(=O)OC)(C(=O)OC)CC2C2C(=O)N(c3ccccc3)C(=O)C2C1 (stereo partly drawn),0.5&-2.9
C[C@@H]1C(=O)O[C@H]2[C@@H](O)[C@@]34[C@H]5CC(C(C)(C)C)[C@]36[C@@H](OC(=O)[C@@H]6O)O[C@@]4(C(=O)O5)[C@@]12O (stereo partly drawn),-1.8
N#Cc1cccc(CS(=O)(=O)c2nc3ccccc3s2)c1,-2.2

# Structures shown so far containing bromine:
SMILES,GLA inh pH 4.5
COc1cccc([C@@H]2Oc3ccc(Br)cc3C(=O)[C@H]2OC(=O)Nc2ccc(C)c(Br)c2)c1,-6.1
CCOC(=O)CNC(=O)O[C@@H]1C(=O)c2cc(OC)ccc2O[C@H]1c1ccc(OC)c(Br)c1,-6.0
COc1ccc2c(c1)C(=O)[C@@H](OC(=O)N[C@H]1CCCc3ccccc31)[C@H](c1ccc(OC)c(Br)c1)O2,3.8
COc1ccc2c(c1)C(=O)[C@@H](OC(=O)NCCOc1ccccc1)[C@H](c1ccc(OC)c(Br)c1)O2,-7.8

# Some of the compounds tested (hit frequency here may not be typical).
